Screening data (PubChem BioAssay)
Marburg entry inh – Marburg virus entry inhibition | 1.8% of 300,000 active | Potency, µM (doses to about 37.8 µM), for the others: at the highest dose activity change, negative = inhibition, hits mostly inhibitors | Marburg virus pseudotyped entry inhibition, cell reporter; control for the full effect not named in the record; about a third of the inactives were read at about 46 µM | AID 540276; active = well fitted inhibition curve with a large enough effect; inconclusive = small, poorly fitted or top-dose-only effect, or effect the other way; inactive = flat fitted curve, though single readings scatter; tested in HEK293 cells; about a fifth of its hits are not listed in these tables; also: % is scaled to controls: 0 for no effect and ±100 for the full control effect; luciferase read-out
StopGo reporter – FMDV 2A StopGo reporter, luciferase signal | 1.2% of 410,000 active | Potency, µM (top dose mostly 57.9 µM), inactives show top-dose signal change, negative = less light | human cells with a luciferase reporter of 2A StopGo recoding; control for the full effect not named in the record; active = well fitted falling curve with a large enough effect; inconclusive = small, poorly fitted or top-dose-only effect; inactive = no such curve, though single readings can be large or run the other way; tested in HEK293T cells; also: % is scaled to controls: 0 for no effect and ±100 for the full control effect; nearly all actives have a fitted effect of over 45% in size; luciferase light after 4 h
Lassa entry inh – Lassa virus entry inhibition | Lassa virus pseudotype entry inhibition, cell reporter; control for the full effect not named in the record | Potency, µM (titrated, usually from 37.9 µM), for inactives: top-dose activity change, negative = inhibition, most hits filed as inhibitors | 1.2% of 300,000 active; active means well fitted inhibition curve with a large enough effect; inconclusive means small, poorly fitted or top-dose-only effect, or effect the other way; inactive means flat fitted curve, though single readings scatter; tested in HEK293 cells; also: % is scaled to controls: 0 for no effect and ±100 for the full control effect; nearly all actives have a fitted effect of over 50% in size; luciferase read-out
NS1 function inh – blocks influenza NS1 protein function; S. cerevisiae slowed by influenza A NS1, growth recovery by OD600; 0.4% of 270,000 active; AID 2326; Potency, µM (titrated, usually from 46.1 µM), without a hit: top-dose activity, positive = more growth; also: actives are rising curves; nearly all actives have a fitted effect of over 50% in size
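S. cerevisiae expressing influenza A NS1, grown in glucose, washed, then diluted 1:100 into pH 6.0 -URA galactose medium with 23 nl compound. Growth recovery read as OD600; NS1-free strain serves as control.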
RE007 growth inh – less growth of the S. pombe RE007 Vpr strain. S. pombe RE007 Vpr strain, BacTiter-Glo ATP luminescence, 24 h; control for the full effect not named in the record. Potency, µM (highest dose often 92.2 µM), for the others: at the top dose activity change, negative = less growth. 0.21% of 360,000 active. AID 651644; active = well fitted falling curve with a large enough effect; inconclusive = small, poorly fitted or top-dose-only effect; inactive = no such curve, though single readings can be large or run the other way;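 also: % is scaled to controls: 0 for no effect and ±100 for the full control effect; nearly all actives have a fitted effect of over 50% in size; the assay follows cell death caused by Vpr and the record does not say whether a fall means rescue or toxicity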
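Fission yeast RE007 carrying one integrated HIV-1 vpr copy, seeded at OD 0.01 in PMG+AL medium with 23 nL pinned compound. Grown 24 h at 30 degrees; viability read by BacTiter-Glo luminescence after 5 min.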
Cruzain Triton – blocks cruzain activity in presence of Triton detergent | P25779 | purified cruzain, Z-FR-AMC fluorescence, 0.01% Triton | Potency, µM, without a hit: max response, negative = inhibition, hits mostly inhibitors | 0.43% of 200,000 active | AID 1478; active = well fitted curve in the direction sought with a large enough effect; inconclusive = small, poorly fitted or top-dose-only effect, or another doubt; inactive = no such curve, though single readings can be large; an effect the other way counts as inactive or inconclusive;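 also: plate controls were neutral wells for no effect and buffer without enzyme for full effect; nearly all actives have a fitted effect of over 40% in size; top concentration of the series not given in the record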
Target sequence (P25779 123-467 limits assumed): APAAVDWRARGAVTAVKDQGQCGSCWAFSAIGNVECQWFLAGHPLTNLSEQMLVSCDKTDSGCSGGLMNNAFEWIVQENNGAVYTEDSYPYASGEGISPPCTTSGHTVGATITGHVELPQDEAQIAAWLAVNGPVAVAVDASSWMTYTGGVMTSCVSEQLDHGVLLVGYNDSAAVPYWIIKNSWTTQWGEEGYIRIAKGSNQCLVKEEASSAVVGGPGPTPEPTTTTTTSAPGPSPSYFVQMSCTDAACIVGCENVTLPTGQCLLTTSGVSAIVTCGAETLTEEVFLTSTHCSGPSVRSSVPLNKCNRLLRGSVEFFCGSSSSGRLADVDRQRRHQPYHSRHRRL
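15 min RT preincubation of 1.5 nM cruzain with compound, then 2 uM Z-FR-AMC added; kinetic AMC fluorescence, 60 s delta. Triton X-100 0.01%, pH 5.5.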
Cruzain noTriton – inhibitors of Trypanosoma cruzi cruzain without detergent. purified cruzain, Z-FR-AMC fluorescence, no detergent. Potency, µM, for inactives: max response, negative = inhibition, usual class: inhibitors. 2.3% of 200,000 active. AID 1476; active = well fitted curve in the direction sought with a large enough effect; inconclusive = small, poorly fitted or top-dose-only effect, or another doubt; inactive = no such curve, though single readings can be large; an effect the other way counts as inactive or inconclusive;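 also: plate controls were enzyme without inhibitor for no effect and buffer without enzyme for full effect; nearly all actives have a fitted effect of over 40% in size; top concentration of the series not given in the record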
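Purified cruzain at 1.5 nM, pre-incubated 15 min with compound at room temperature in 100 mM sodium acetate pH 5.5, 5 mM DTT, 0.00005% Triton X-100. Reaction started with 2 uM Z-FR-AMC; AMC fluorescence increase over 60 s gives rate.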
SARS PLP yeast – blocks SARS-CoV papain-like protease in a yeast assay. S. cerevisiae expressing SARS-CoV PLpro, growth rescue; control for the full effect not named in the record. Potency, µM (doses to about 32.9 µM), inactives show at the highest dose activity, positive = growth rescue. 0.19% of 330,000 active. AID 485353; also: 0% is about no effect; nearly all actives have a fitted effect of over 55% in size; growth read by luminescence after 48 h
* hit, by the source's call; u = inconclusive; x = no result given; & = joins results of further samples; [ ] = dose if it differs, or a comment. Unless noted, calls follow the shape of the dose curve; as a rule, active means well fitted rising curve with a large enough effect; inconclusive means small, poorly fitted or top-dose-only effect; inactive means no such curve, though single readings can be large or run the other way. Potency is read from the fitted curve at half-maximal effect.

SMILES | Marburg entry inh | StopGo reporter | Lassa entry inh | NS1 function inh | RE007 growth inh | Cruzain Triton | Cruzain noTriton | SARS PLP yeast
COc1ccc(CC(=O)N(Cc2ccccc2)c2ccccc2)cc1S(=O)(=O)N1CCOCC1 | u | -5% | -12% | 2% | 5% | x | x | 9%
COCCn1nnnc1C(C(C)C)N(Cc1cccnc1)Cc1cc2cc(OC)ccc2[nH]c1=O (stereo not given) | -2%&-2%[46.1 µM] | 0% | 8% | -8% | 13% | -3.6% | -1% | 16%
Cc1ccc(C)c(S(=O)(=O)NCC(=O)Nc2sc3c(c2C(N)=O)CCC(C)C3)c1 (stereo not given) | u | -11% | u | -1% | 1% | 7.1% | 1% | -1%
Cc1nnc(SCC(=O)NC(C)(C)C)n1C1CCCCC1 | 21% | -8% | -3% | -8% | -18% | 2.3% | 2% | 2%
Nc1nc(-c2ccco2)nn1C(=O)c1ccc(F)cc1 | -27% | 0% | 4% | x | -9% | x | x | -6%
COC(=O)[C@@H]1C[C@@]2(O)[C@H](O)[C@H](O)[C@H](O)C[C@H]2N1Cc1cccc2ccccc12 | x | -23% | x | -5% | -1% | -1.4% | 1% | 2%
Cc1ccc(S(=O)(=O)c2nc(-c3cccc(Br)c3)oc2N2CCCCCC2)cc1 | -2%[46.1 µM] | 20% | -23%[46.1 µM] | x | x | -1.4% | -9% | x
Cc1ccc(-n2nc3c(=O)n(CC(=O)NC4CCCCC4)nc(C)c3c2C)cc1 | x | -23% | x | -8% | 13% | x | x | -2%
N#C/C(=C(/O)c1ccc([N+](=O)[O-])cc1)c1nc2ccccc2[nH]1 | 8%[46.1 µM] | -16% | -14%[46.1 µM] | 1% | 0% | x | x | 2%
Cc1c(Cl)cccc1-n1ncc(C(=O)NCCN2CCN(C)CC2)c1C1CCN(C(=O)OC(C)(C)C)CC1 | x | -24% | 17%[46.1 µM] | x | x | 0.0% | 10% | x
O=C(Cn1ncc2c(=O)oc3ccccc3c21)Nc1cc(F)ccc1F | 2%[46.1 µM] | -1% | 18%[46.1 µM] | x | x | -2.3% | 5% | x
CC1CCCN(S(=O)(=O)c2ccc(S(=O)(=O)N3CCCN(Cc4ccccc4)C3)cc2)C1 (stereo not given) | u | -9% | 9% | 3% | -3% | 1.8% | u | 5%
COc1ccc(CCNC(=O)COc2ccc(N(C)S(=O)(=O)c3ccc(C)cc3)cc2)cc1OC | u | -7% | u | x | 4% | x | x | -1%
Cc1ccc(S(=O)(=O)NNC(=O)Nc2ccc([N+](=O)[O-])cc2)c(C)c1 | 7% | -7% | 0% | 6% | 11% | x | x | 1%
C=C(C)COC(=O)C1CC2OC2CC1C(=O)OCC(=C)C (stereo not given) | 10% | -2% | 0% | x | -21% | x | x | x
COCCCNS(=O)(=O)c1ccc(Cl)c(C(F)(F)F)c1 | x | 14% | x | 4% | -4% | x | x | -2%
COc1cc(OC)c(C(=O)OCN2C(=O)c3ccccc3C2=O)cc1OC | 3%[46.1 µM] | -2% | 9%[46.1 µM] | 3% | 8% | x | x | 0%
CCc1ccc(CN(C)CC(=O)Nc2ccccc2[N+](=O)[O-])cc1 | u | -11% | -15% | -9% | 1% | -6.2% | -16% | 13%
Cc1nc(C)n(C(C)CNC(=O)c2cccc(Br)c2)n1 (stereo not given) | u | -10% | -18% | 1% | -1% | x | x | -8%
S=C(Nc1ccc(Oc2ccccc2)cc1)NC1CCCC1 | 22% | 66%[activator] | 4% | -11% | 5% | -6.7% | -3% | -77%
Cc1cccc(COCCN2CCN(S(=O)(=O)c3ccccc3)CCC2=O)c1 | x | -18% | x | 2% | -15% | x | x | 2%
O=C(COc1ccc2ccc(=O)oc2c1)NC1CCCCC1 | u | 2% | 1% | x | 25% | x | x | 1%
O=C(Nc1ccc(NC(=O)c2ccco2)cc1)c1ccc2c(c1)OCO2 | u | -3% | -26% | 1% | 3% | 0.3% | u | u
CN(C)S(=O)(=O)c1cccc(C(=O)NCc2ccco2)c1 | -4%[46.1 µM] | 1% | 4% | u | -11% | 2.9% | -11% | 1%
CNC(=O)C1CC(=O)N(CCc2ccc(OC)cc2)C(=Nc2ccc(OC)cc2)S1 (stereo not given) | -23% | -13% | u | -6% | -2% | -3.8% | u | 4%
COc1cc(CN2CCN(C(=O)CC(C)C)CC2)cc(OC)c1O | 24% | x | -12% | -5% | 7% | 2.7% | 2% | 4%
O=C(Sc1ccc(Cl)cc1)c1cccc(Cn2cc(C(F)(F)F)ccc2=O)c1 | x | 2% | x | 0% | 27% | x | x | 1%
O=C(Nc1ccc(F)cc1)Nc1csc2ccccc12 | u | 48%[activator] | u | -2% | 0% | x | x | -8%
CC(C)(C)NC(=O)C1N(c2cccnc2)C(=O)C2C(C(=O)Nc3ccccc3)C3(C)C=CC21O3 (stereo not given) | -6% | 5% | -2% | -7% | 12% | 2.1% | -2% | 4%
CCC(=O)c1ccc(OCC(=O)OCC(=O)NC2CCCCCC2)cc1 | -6%[46.1 µM] | -20% | 14% | x | 10% | x | x | -6%
Cc1ccc(NC(=O)CSc2nc3ccccc3c(=O)n2CCCN2CCCCC2)cc1Cl | u | -25% | u | x | -21% | x | x | -12%
N#C/C(=C\c1cccc(O)c1)c1nc2ccccc2o1 | 3%[46.1 µM] | 29% | u | -53% | -13% | x | x | -3%
O=S(=O)(c1ccc(OCC(O)CN2CCN(c3ccccc3Cl)CC2)cc1)N1CCOCC1 (stereo not given) | -2%&-20% | x | u | 1.3µM* | 4% | 11% | 9% | 13%
Cc1ccc(C(=O)COC(=O)C2C3C=CC(C3)C2C(=O)OCC(=O)c2ccc(C)c(C)c2)cc1C (stereo not given) | u | 22% | -6% | 8% | -23% | 3.5% | -18% | 3%
Cc1cc(NS(=O)(=O)c2ccc(NC(=O)c3cc4c(=O)n5ccccc5nc4s3)cc2)nc(C)n1 | x | 49%[activator] | x | 3% | -17% | x | x | -1%
O=c1[nH]c2ccccc2cc1CN(CC1CCCO1)S(=O)(=O)c1ccccc1 (stereo not given) | u | -7% | u | -7% | -14% | x | x | -5%
O=C(CN1CCS(=O)(=O)CC1)NNC(=O)C1CCCCC1 | -8%[46.1 µM] | -25% | -12%[46.1 µM] | x | 2% | x | x | 0%
O=C1COc2cc(O)ccc21 | 7%[46.1 µM] | 11% | 0%[46.1 µM] | x | -1% | x | x | x
CCOC(=O)c1c(C)oc2c1c(C=NCCC(=O)O)c(O)c1ccccc12 | -3%[46.1 µM] | -19% | u | x | -5% | x | x | 3%
O=C(Nc1cccc(/C=C/c2ccccn2)c1)c1cc(Cl)ccn1 | 24%[46.1 µM] | 19% | x | -5% | -5% | x | x | 0%
Cc1ccc(OCC(=O)NCCNC(=O)COc2ccc(C)cc2)cc1 | 12%[46.1 µM] | 2% | 9% | 8% | -13% | x | x | -2%
CC(=O)c1sc(NC(=O)CSCc2c(C)noc2C)nc1-c1ccccc1 | -11% | -7% | -21% | x | 10% | x | x | -2%
O=C(NCc1ccc(F)cc1)C(=O)NCC1OCCN1S(=O)(=O)c1cccs1 (stereo not given) | -1% | -9% | -26% | 1% | -3% | -3.1% | 2% | -8%
Cc1ccc(C(=O)NCc2nnnn2-c2ccc(C)c(C)c2)cc1 | x | -9% | 24%[46.1 µM] | x | x | 1.1% | -8% | x
COCCCNC(=O)Cn1ncc2c(=O)oc3ccccc3c21 | 4% | -6% | 17% | 6% | -3% | -2.7% | -9% | -1%
Cc1cc(C)nc(N/N=C/c2cn[nH]c2-c2ccc(F)cc2)n1 | u | -12% | 8% | 1% | 7% | x | x | -1%
Cc1ccc(OCC(=O)Nc2cccc(C(=O)OCc3cc(=O)n4nc(C)sc4n3)c2)cc1 | x | 13µM* | u | x | x | 0.7% | -9% | x
O=C1CCCN1Cc1ccccc1 | x | -20% | x | 8% | -7%[18.4 µM] | x | x | 1%
CCO[C@@H]1OC(C(=O)NCc2nc3ccccc3[nH]2)=C[C@H](c2ccccc2)[C@H]1CCCO | x | 0% | x | -7% | 2% | x | x | 0%
O=C(CSc1nnc(Cn2c(=O)sc3ccccc32)n1-c1ccccc1)N1CCOCC1 | 16% | 5% | 0% | 2% | -2% | -6.6% | 1% | 11%
O=C1N=C2SCCN2/C1=C\c1c(Cl)cccc1Cl | -4% | -18% | -8% | u | 0% | 0.3% | 0% | 10%
O=C(COC(=O)CSc1ccc(F)cc1)NCC1CCCCC1 | -4% | 5% | -4% | -4% | 63% | x | x | -8%
CN(C)C(=O)c1cc2cc([N+](=O)[O-])ccc2s1 | 29% | -6% | u | -7% | -5% | -0.5% | -3% | -3%
CON/C=C(\C=Nc1ccc(Cl)cc1Cl)c1ncc(C(F)(F)F)cc1Cl | 2% | 3% | -7% | 8% | 15% | 3.2% | u | -3%
COC(=O)C(C(=O)OC)c1ncccc1[N+](=O)[O-] | u | -10% | 17%[46.1 µM] | 2% | 9% | x | x | 1%
COc1cc(C2C(C(=O)c3ccc(C)o3)=C(O)C(=O)N2Cc2cccnc2)ccc1O (stereo not given) | u | -1% | 3% | -34%&-14% | 14% | -0.9% | -3% | 0%&0%
O=C(Nc1cccc(C(F)(F)F)c1)c1cc2c(=O)c3ccccc3oc2nc1C(F)(F)F | u | u | u | 6% | -3% | -9.5% | -4% | -3%
CC(=O)NCc1ccc(S(=O)(=O)N/N=C/c2ccc(Br)cc2)cc1 | u | 113%[activator] | u | 8% | -1% | -5.4% | 5% | 2%
Cc1cc2c(cc3c(SCc4ccc(Cl)cc4)nncn32)o1 | x | -10% | -6%[46.1 µM] | x | x | -5.9% | 1% | x
CCOC(=O)CSc1nnnn1-c1cc(OC)c(Cl)cc1OC | 5%[46.1 µM] | 11% | 2% | 0% | 18% | 3.5% | 14% | 1%
COc1ccc(C=C(C(=O)O)c2ccc(OC)cc2)cc1 | 22% | 0% | u | x | -17% | x | x | x
